Vif TR-FRET: HIV-1 Vif–A3G interaction blockers – biochemical, TR-FRET, GST-Vif 1-94, biotin-A3G peptide, dose response retest, primary screen (AID 1117319); TR-FRET GST-Vif / biotin-A3G peptide binding; higher % means a stronger effect; test concentration not given here; strong numbers were not always called active; inhibition, %, or IC50 in µM where a hit was titrated; 260,000 tested, 0.57% active;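 active means above the screen mean plus three standard deviations and confirmed in dose response; inconclusive means results disagree or hit not tested in dose response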;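 further: Vif residues 1-94 fused to GST binding biotinylated APOBEC3G peptide 110-148; 0% = full assay without inhibitor and 100% = GST in place of GST-Vif; retest series ran down from 100 µM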
UCH37 DUB inh: human UCH37 deubiquitinating enzyme inhibition; Q9Y5K5; purified proteasome/UCH37, Ub-AMC cleavage fluorescence; inhibition, % (concentration not given with the values); 330,000 tested, 0.33% active;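 active means mean of two replicates above 20%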;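 further: 0% = compound-free wells with enzyme and 100% = wells lacking proteasome; stock transfer was 100 nL into about 20 µL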
Target sequence (Q9Y5K5 whole entry, looked up): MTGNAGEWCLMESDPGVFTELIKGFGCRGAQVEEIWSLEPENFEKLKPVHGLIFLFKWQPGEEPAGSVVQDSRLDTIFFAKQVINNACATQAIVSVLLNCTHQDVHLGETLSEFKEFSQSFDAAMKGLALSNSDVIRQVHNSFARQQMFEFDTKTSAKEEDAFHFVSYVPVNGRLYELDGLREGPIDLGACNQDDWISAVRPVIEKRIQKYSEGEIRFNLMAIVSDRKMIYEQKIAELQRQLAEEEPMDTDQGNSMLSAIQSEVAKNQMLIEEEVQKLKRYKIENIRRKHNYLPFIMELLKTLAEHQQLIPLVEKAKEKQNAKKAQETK
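Material: Human UCH37 enzyme supplied as purified proteasome complex | Schedule: 30 min preincubation with enzyme, 25 min cleavage at room temperature | Detection: AMC fluorescence 355/460 nm | Measure: % inhibition of Ub-AMC cleavage fluorescence | Controls: Wells without proteasome as full block, compound-free enzyme plus substrate as uninhibited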
RanGTP-Imp inh: disruptors of Ran-importin-beta complex formation – biochemical, FRET, CFP-Ran, YFP-importin-beta, homogeneous, primary screen | cell-free CFP-Ran/YFP-importin-beta FRET ratio | inhibition, % (concentration not given with the values) | 300,000 tested, 1.1% active;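 active means most replicates above 15%; inconclusive means exactly half above 15%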;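 further: 0% = DMSO wells and 100% = Ran loaded with GDP instead of GTP; wells of about 40 µL received 100 nL stock; the first replicate is given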
HNF4A DNA FP: change in binding of human HNF4 alpha to DNA. HNF4a-FITC DNA binding, fluorescence polarization, 1 h. 360,000 tested, 0.3% active. P41235. AID 1224865. activity change, % at 10 µM; in the data active means activity change above about 30%, passing the limit was not always enough;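 further: controls were the assay level and a saturating level of protein; the project sought stronger binding though the title names inhibitors; some compounds called inactive have numbers as strong as hits; positive values seem to mean higher polarization but the record does not say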
Target sequence (P41235 whole entry, looked up): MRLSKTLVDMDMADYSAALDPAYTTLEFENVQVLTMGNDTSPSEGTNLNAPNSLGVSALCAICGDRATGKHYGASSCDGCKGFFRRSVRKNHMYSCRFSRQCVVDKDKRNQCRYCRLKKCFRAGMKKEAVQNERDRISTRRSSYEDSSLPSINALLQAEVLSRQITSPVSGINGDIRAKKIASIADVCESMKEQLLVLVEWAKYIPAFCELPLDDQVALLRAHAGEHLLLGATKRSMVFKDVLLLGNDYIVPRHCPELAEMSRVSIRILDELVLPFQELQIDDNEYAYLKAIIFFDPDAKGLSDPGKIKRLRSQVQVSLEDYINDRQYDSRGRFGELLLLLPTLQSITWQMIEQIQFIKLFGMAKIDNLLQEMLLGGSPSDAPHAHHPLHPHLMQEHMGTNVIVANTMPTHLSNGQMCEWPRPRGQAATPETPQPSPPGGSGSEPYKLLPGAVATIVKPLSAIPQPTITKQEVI
FGF22 binding: shifts melting point of recombinant human FGF22. recombinant FGF22 thermal shift, SYPRO orange fluorescence; percent of sucrose octasulfate shift, DMSO zero. Q9HCT0. calls only at 9.99 µM. 340,000 tested, 1.5% active;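 active means melting point raised past a set limit in the mean and every replicate; inconclusive means no clear call; three in four hits are not shown here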
Target sequence (Q9HCT0 whole entry, looked up): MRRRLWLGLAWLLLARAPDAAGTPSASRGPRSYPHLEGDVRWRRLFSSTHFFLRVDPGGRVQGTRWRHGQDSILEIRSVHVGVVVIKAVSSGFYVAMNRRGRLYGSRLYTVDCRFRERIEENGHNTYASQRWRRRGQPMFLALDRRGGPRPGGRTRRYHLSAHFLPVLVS
Ecoli growth: inhibitors of Escherichia coli growth; OD600, 23 h; stronger effect = lower value; OD600 absorbance (no concentration beside the values); 330,000 tested, 0.21% active;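 active means OD600 absorbance below the run mean of sample wells minus 3.6 SD, in any replicate, cut at about 0.56 in these data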;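 further: stock transfer was 300 nL into about 60 µL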
AF4-AF9 inh: MLL-AF4/AF9 protein interaction inhibition. P42568. AID 651704. AlphaScreen, biotin-AF4 peptide binding to FLAG-AF9. 350,000 tested, 0.47% active. inhibition, % at 10 µM;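 active means every replicate reaching a set inhibition limit, whatever the replicate mean, cut at about 25% in these data; inconclusive means mean inhibition reaches that limit but some replicates miss it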;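 further: 0% = plate neutral control median and 100% = total signal loss; the record names both 10 and 1 µM as test concentration; the first replicate is given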
The depositor's hits bear a star; i = inactive; u = inconclusive; x = no result given; & = joins results of further samples. These rows are one share of the data; the hit share may differ from the screen's.

SMILES	Vif TR-FRET	UCH37 DUB inh	RanGTP-Imp inh	HNF4A DNA FP	FGF22 binding	Ecoli growth	AF4-AF9 inh
CN(C)c1ccc(-c2nc3ccccc3n2C)cc1	-8%	-238	-3.7	-0.5	x	0.64	x
Cc1cc(C)n(-c2nc(C)nc3sc4c(c23)CCC(C)C4)n1 (stereo unspecified)	2%	-25	-4.1	4.6	x	0.75	x
O=[N+]([O-])c1ccccc1S(=O)(=O)Nc1ccc(S(=O)(=O)N2CCCC2)cc1	x	-0.8	x	0.4	i	0.66	0.1
CN(C(=O)c1cccc(NC(=O)c2cccs2)c1)c1ccccc1	x	2.0	5.4	-1.6	i	0.63	0.4
CCCC(C)c1nnc(NC(=O)CCS(=O)(=O)c2ccccc2)s1 (stereo unspecified)	x	5.1	0.4	-0.6	i	0.7	-0.7
CCOC(=O)[C@@H]1[C@H]2COc3cc(OC)ccc3[C@@H]2N2C(=O)N(c3ccc(C)cc3)C(=O)[C@]12C	x	0.2	2.9	-1.5	i	x	2.6
COC(=O)C1CCN(C(c2cc(OC)c(OC)c(OC)c2)c2sc3nc(C)nn3c2O)CC1 (stereo unspecified)	2%	1.4	-4.8	3.9	i	0.76	2.7
Cc1cc(C)c(C#N)c(SCc2ccccc2C(=O)O)n1	3%	-13	0.0	-1.1	x	0.77	x
COc1ccccc1N1CCN(C(CNS(=O)(=O)c2cccs2)c2cccnc2)CC1 (stereo unspecified)	11%	4.8	0.5	2.0	i	0.73	-4.4
COCCn1c(SCC(=O)Nc2ccc(C)cc2)nc2c(oc3ccccc32)c1=O	x	5.0	-1.1	-0.8	x	0.73	x
CC(Sc1ncnc2sccc12)C(=O)Nc1ccc(S(=O)(=O)N2CCOCC2)cc1 (stereo unspecified)	x	-0.5	x	0.6	i	0.67	-15
O=C(O)[C@@H]1CCCN1C(=O)c1ccco1	x	2.5	1.8	-1.3	i	0.7	1.5
Cc1ccc(N2C(=O)C3NN=C(C(=O)OCc4ccccc4)C3C2=O)cc1 (stereo unspecified)	6%	-0.3	0.3	-6.1	x	0.69	x
Cc1ccc(C(=O)Nc2ccccc2C(=O)NC(C(=O)O)C(C)C)cc1 (stereo unspecified)	-3%&5%	4.2	-4.2	0.1	x	0.74	-1.8
CSc1ccccc1NC(=O)c1ccccc1N(C)S(C)(=O)=O	3%	3.2	0.7	0.8	x	0.69	x
CSc1ccc(S(=O)(=O)Nc2c(C)n(C)n(-c3ccccc3)c2=O)cc1	x	1.3	-3.5	1.1	i	0.64	1.6
CCS(=O)(=O)N1CCC(NC(=O)C(Cc2cc(OC)ccc2OC)NC(C)=O)CC1 (stereo unspecified)	-2%	4.4	1.7	1.4	i	0.68	3.5
COc1cccc(NC(=O)CN(C)C(=O)Cc2cccc3ccccc23)c1	-12%	3.6	x	4.4	i	0.69	-2.7
Cc1ccnc(SCc2cc(=O)c(OC(=O)c3cc([N+](=O)[O-])ccc3Cl)co2)n1	2%	4.0	1.0	-2.6	i	0.67	0.1
CCOc1ccc(NC(=S)N2CCN(S(=O)(=O)c3ccccc3)CC2)cc1	-2%	-0.9	x	0.8	i	0.71	-1.0
CC(C)(C)SCCNC(=O)/C=C/c1ccccc1	11%	1.3	5.2	-0.9	i	0.66	0.1
CCCc1cc(=O)[nH]c(/N=C(\N)Nc2ccccc2)n1	0%	x	-3.4	2.3	x	x	x
CC(C)Cn1nc(NS(=O)(=O)c2cccc3nonc23)c2cc3ccccc3nc21	2%	9.2	0.7	0.6	i	0.68	4.0
COc1ccccc1NS(=O)(=O)c1cc(NC(=O)CC(C)(C)C)ccc1N1CCOCC1	15%	1.5	6.1	-3.8	x	0.7	0.7
O=C(CN1CCN(S(=O)(=O)c2ccc(Cl)cc2)CC1)c1ccc(O)c(O)c1	x	5.5	0.8	-3.5	x	0.7	x
CC1(C)Oc2ccc3ccc(=O)oc3c2CC1O (stereo unspecified)	x	-171	3.0	-1.7	i	0.69	-0.8
Cc1cc(C)nc(NC(=O)Nc2ccc3c(c2)OCO3)c1	2%	5.3	3.3	4.1	i	0.71	0.1
Clc1ccccc1CN1CCN(/N=C/c2ccncc2)CC1	x	x	-2.1	-1.3	i	x	16
C=CCn1c(CCCNC(=O)C(C)(C)C)nc2ccccc21	-3%	2.2	4.2	-0.7	i	0.79	1.6
CCn1ncc(CN2CCCC(CNC(=O)c3ccc(F)cc3)C2)c1C (stereo unspecified)	-1%	0.4	-1.5	4.2	x	0.67	1.1
O=c1c2ccccc2sc2ccc(NCCCN3CCOCC3)cc12	x	-0.2	-18	7.6	i	0.66	14
COCOc1cccc(CN2CCC2(C)C(=O)Nc2ccc(C)cc2)c1 (stereo unspecified)	x	x	x	0.3	i	x	-2.9
O=C1NC[C@H](CCCCN2C[C@H](Cc3ccccc3)N(CC3CCCCC3)C(=O)C2=O)N(CC2CCCCC2)C1=O	x	x	x	0.3	i	x	6.4
O=C(CN(Cc1ccco1)C(=O)c1cc(=O)[nH]c2ccccc12)Nc1ccccc1C(F)(F)F	8%	-12	-0.1	0.4	x	0.67	x
CS(=O)(=O)c1ccc(NC(=O)C2CCCN(C(=O)c3ccc(Cl)cc3)C2)cc1 (stereo unspecified)	-9%	2.6	x	-2.9	i	0.67	-9.2
O=C(Cn1cc(C(F)(F)F)cc(Cl)c1=O)NCc1ccccc1	x	2.6	5.4	2.1	i	0.7	1.0
CC(C)(C)NC(=O)C(c1ccc(O)cc1)N(C(=O)Cn1nnc(-c2ccc(F)cc2)n1)c1ccccc1F (stereo unspecified)	0%	6.0	-2.4	-1.6	i	0.7	1.9
COc1ccccc1C(c1nnnn1C(C)(C)C)N1CCCc2ccccc21 (stereo unspecified)	5%	-4.6	-2.2	-0.7	x	0.8	x
COc1ccc(-c2sc3cc4c(cc3c2C#CC2(O)CCCCC2)OCO4)cc1	x	x	x	0.1	i	x	4.6
CCS(=O)(=O)N1CCC(C(=O)NCCCN2CCN(c3ccccc3F)CC2)CC1	-3%	1.1	-2.9	-1.3	x	0.7	x
O=C(Oc1ccc(OC(=O)c2ccco2)c(S(=O)(=O)c2ccc(Cl)cc2)c1)c1ccco1	14%	2.7	-1.6	0.0	x	0.7	x
CCOc1cc(/C=N/N=C/c2ccc(O)c(OCC)c2)ccc1O	-4%	x	-1.6	1.8	i	x	-5.1
COc1ccc([N+](=O)[O-])cc1N(CC(O)CN(C)C)S(=O)(=O)c1ccc(C)cc1 (stereo unspecified)	x	5.8	0.8	1.1	i	0.67	2.1
CC(=O)NCCNc1nc2c(-c3ccccc3)nnn2c2ccccc12	x	-189	u	3.6	i	0.69	-1.2
CCOC(=O)c1c(-c2ccccc2)csc1NC(=O)CSc1nc(C)cc(C)n1	x	3.7	0.2	0.1	i	0.71	-4.0
C/C(=N/n1cnnc1)c1cccnc1	2%	x	-0.8	-2.5	x	x	x
CCN1CCN(C(=O)c2cc3cc(Cl)ccc3[nH]2)CC1	5%	-2.5	2.8	2.6	i	0.65	0.4
C[C@@H]1CN([C@H](C)CO)C(=O)CCCn2cc(nn2)CO[C@H]1CN(C)C(=O)Nc1ccccc1C(F)(F)F	-4%	x	x	2.2	i	x	-0.4&-3.7&-3.2
CCOC(=O)c1c(C)nc2c(c1-c1cc(OC)ccc1OC)C(=O)c1ccccc1-2	-2%	5.1	-4.2	1.3	x	0.74	x
O=C(Nc1cc(Cl)cc(Cl)c1)c1ccc(Cn2c(=O)[nH]c3ccsc3c2=O)cc1	-29%	8.2	0.1	1.3	x	0.8	x
CCOc1ccccc1CN1C(=O)c2ccccc2C1C(=O)NC(C)CC (stereo unspecified)	1%	-0.4	-1.6	-1.9	x	0.75	x
COc1ccc(C(=O)N/N=C/c2ccccc2C(=O)O)cc1OC	x	x	7.1	-0.1	i	x	-8.0
Cc1nn(Cc2ccccc2)c(C)c1/C=N/NC(=O)c1ccncc1	-1%	x	4.8	-2.2	i	x	x
CCN1CCc2nc(NC(=O)Cc3ccc4c(c3)OCCO4)sc2C1	0%	-4.7	x	14	x	0.67	x
CC(C)n1nc(C(=O)Nc2nnc(C3CC3)s2)c2ccccc2c1=O	3%	7.5	2.2	-0.8	i	0.68	-0.4
CC(=O)Nc1ccc(N/C=C/C(=O)C(C)(C)C)cc1	41µM*	13	-3.7	6.1	x	0.69	x
CCn1cc(Br)c(-c2nc3ccccc3c(=O)n2N)n1	6%	-0.9	-3.4	-4.3	x	0.69	x
Cc1ccc(NC(=O)CS(=O)CC(=O)N(C(C)C(=O)NC2CCCCC2)C(C)(C)C)cc1 (stereo unspecified)	-6%	1.7	-3.5	1.5	i	0.65	0.4
COc1ccc(-c2noc(CCCC(=O)NC3CCCCC3)n2)cc1OC	x	-0.6	u	1.4	i	0.66	0.8
CCCCN(Cc1ccco1)C(=O)c1cc2c(=O)[nH]c3ccc(C)cc3c2s1	-9%	-20	-2.9	-7.7	i	0.73	0.2

Rewritten with values under each structure: entries from further up.
Value order: Vif TR-FRET, UCH37 DUB inh, RanGTP-Imp inh, HNF4A DNA FP, FGF22 binding, Ecoli growth, AF4-AF9 inh
COCCn1c(SCC(=O)Nc2ccc(C)cc2)nc2c(oc3ccccc32)c1=O
    x, 5.0, -1.1, -0.8, x, 0.73, x
CC(Sc1ncnc2sccc12)C(=O)Nc1ccc(S(=O)(=O)N2CCOCC2)cc1 (stereo unspecified)
    x, -0.5, x, 0.6, i, 0.67, -15
O=C(O)[C@@H]1CCCN1C(=O)c1ccco1
    x, 2.5, 1.8, -1.3, i, 0.7, 1.5
Cc1ccc(N2C(=O)C3NN=C(C(=O)OCc4ccccc4)C3C2=O)cc1 (stereo unspecified)
    6%, -0.3, 0.3, -6.1, x, 0.69, x

Following part.
SMILES	Vif TR-FRET	UCH37 DUB inh	RanGTP-Imp inh	HNF4A DNA FP	FGF22 binding	Ecoli growth	AF4-AF9 inh
Cc1oc2ccc(OCc3ccc(Br)cc3)cc2c1C(=O)O	-9%	3.5	u	1.4	i	0.69	-0.7
O=[N+]([O-])c1ccc(Oc2ccc(-c3nnco3)cc2)c(Cl)c1	-9%	1.2	3.3	-2.5	i	0.68	2.5
Cc1ccc(OCc2nnc(SCC(=O)Nc3nccs3)n2-c2ccccc2)cc1C	u	0.5	1.8	-0.1	x	0.8	x
CCN(CC)S(=O)(=O)c1ccc(/C=C/C(=O)OCC(=O)NCc2cccs2)cc1	-7%	2.9	x	3.1	i	0.66	-0.5
C[C@@H]1CN([C@@H](C)CO)C(=O)CCCn2nncc2CO[C@H]1CN(C)C(=O)C1CCCCC1	-2%	x	x	5.5	i	x	-1.4&-0.9&-7.2
O=S1(=O)CC(N2CCSCC2)CN1Cc1cn(Cc2cccc(Cl)c2)nn1 (stereo unspecified)	x	x	x	-2.7	i	x	-2.4
COc1ccc(Cl)cc1NC(=O)CSc1nc2sccc2c(=O)[nH]1	x	-1.5	-1.1	-6.1	i	0.68	1.5
COC(=O)c1ccc(N(CC(=O)NC2CCCC2)C(=O)CNC(=O)c2cccs2)cc1	x	-0.1	2.0	-1.1	i	0.66	-0.8
CC(=O)C1=C(C)N(Cc2ccccc2)C(=O)N[C@@H]1c1cccc(C(F)(F)F)c1	x	2.5	-3.8	1.0	i	x	10.0
COc1ccc(CNC(=S)N/N=C/c2ccc(O)c(OC)c2)cc1	7%	x	0.4	2.5	x	x	x
CCOC(=O)Nc1nnc(Cc2ccc(Cl)c(Cl)c2)s1	-7%	-1.0	-3.9	-0.3	i	0.71	-5.7
CCOC(=O)N/N=C1\CC(C)S(=O)(=O)c2ccc(Cl)cc21 (stereo unspecified)	u	x	6.4	2.8	i	x	-0.9
